Assay outcomes (PubChem BioAssay)
ALR inh – human ALR oxidase inhibition via reduced H2O2. P55789. purified ALR, DTT oxidation, H2O2 HRP-luminol luminescence. inhibition, % (concentration not given with the values). actives 3.8% (n = 290,000);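 active means mean and each replicate at 75% or more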;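 further: stock transfer was 7.5 nL into about 7.5 µL; 0% = neutral wells and 100% = wells with inactivated enzyme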
Target sequence (P55789 whole entry, looked up): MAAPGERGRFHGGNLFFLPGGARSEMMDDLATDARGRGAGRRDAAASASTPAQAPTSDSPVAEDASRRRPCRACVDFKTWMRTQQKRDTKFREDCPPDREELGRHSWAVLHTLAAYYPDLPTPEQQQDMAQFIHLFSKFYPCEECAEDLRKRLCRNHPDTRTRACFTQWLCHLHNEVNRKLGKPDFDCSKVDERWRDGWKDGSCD
LANA-H2A inh – blocks KSHV LANA binding to histone H2A/H2B; actives 0.6% (n = 320,000); inhibition, % (concentration not given with the values); Q9QR71; cell-free LANA-H2A/H2B peptide, fluorescence polarization; in the data active means inhibition mostly above about 10%, no sharp cut-off; inactive means mostly below about 6.7%;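 further: stock transfer was 7.5 nL into about 10 µL; 0% = median of vehicle wells and 100% = median of positive control wells; one replicate is shown; the record names a cut of 25% in any replicate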
UCH37 inh – blocks the human deubiquitinase UCH37. AID 588478. Q9Y5K5. inhibition, % (no concentration beside the values). purified proteasome/UCH37, Ub-AMC cleavage fluorescence. actives 0.33% (n = 330,000);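 active means mean of two replicates above 20%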;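 further: 0% = compound-free wells with enzyme and 100% = wells lacking proteasome; stock transfer was 100 nL into about 20 µL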
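Reagent: Ub-AMC substrate; assay system: Proteasome-associated human UCH37 deubiquitinase; controls: no-proteasome and no-compound wells; read-out: % inhibition of Ub-AMC cleavage fluorescence; timing: 30 min preincubation with enzyme, 25 min cleavage at room temperature; signal: AMC fluorescence from Ub-AMC cleavage, excitation 355 nm, emission 460 nm; buffer or medium: Tris-HCl pH 7.4 plus ovalbumin, ATP-MgCl2, DTT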
FGF22 binding – FGF22 (human) thermal shift binding; actives 1.5% (n = 340,000); recombinant FGF22 thermal shift, SYPRO orange fluorescence; percent of sucrose octasulfate shift, DMSO zero; Q9HCT0; calls only at 9.99 µM;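 active means melting point raised past a set limit in the mean and every replicate; three in four hits are not shown here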
Target sequence (Q9HCT0 whole entry, looked up): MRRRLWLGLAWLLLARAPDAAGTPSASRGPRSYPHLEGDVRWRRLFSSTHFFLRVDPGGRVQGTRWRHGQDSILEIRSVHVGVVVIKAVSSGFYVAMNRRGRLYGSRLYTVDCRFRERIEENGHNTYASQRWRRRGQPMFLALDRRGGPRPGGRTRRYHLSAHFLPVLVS
HNF4A DNA FP – change in binding of human HNF4 alpha to DNA; P41235; HNF4a-FITC DNA binding, fluorescence polarization, 1 h; activity change, % at 10 µM; actives 0.3% (n = 360,000); AID 1224865; in the data active means activity change above about 30%, passing the limit was not always enough;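 further: controls were the assay level and a saturating level of protein; the project sought stronger binding though the title names inhibitors; some compounds called inactive have numbers as strong as hits; positive values seem to mean higher polarization but the record does not say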
Ecoli growth – inhibitors of Escherichia coli growth; actives 0.21% (n = 330,000); OD600, 23 h; active compounds read low; OD600 absorbance (test concentration not listed);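 active means OD600 absorbance below the run mean of sample wells minus 3.6 SD, in any replicate, cut at about 0.56 in these data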;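 further: stock transfer was 300 nL into about 60 µL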
B2AR ag – agonists of human beta-2 adrenergic receptor inducing internalization. actives 0.43% (n = 340,000). P07550. AID 504454. Am2.2-beta2AR cells, FAP receptor internalization, flow cytometry; reference of the scale not given here. response, % (test concentration not listed);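 active means response above a set limit, near 3 SD of response in nonfluorescent compounds, cut at about 42% in these data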;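 further: stock transfer was 100 nL into about 11 µL; a reference agonist was the positive control; negative values mostly stem from fluorescent compounds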
Target sequence (P07550 whole entry, looked up): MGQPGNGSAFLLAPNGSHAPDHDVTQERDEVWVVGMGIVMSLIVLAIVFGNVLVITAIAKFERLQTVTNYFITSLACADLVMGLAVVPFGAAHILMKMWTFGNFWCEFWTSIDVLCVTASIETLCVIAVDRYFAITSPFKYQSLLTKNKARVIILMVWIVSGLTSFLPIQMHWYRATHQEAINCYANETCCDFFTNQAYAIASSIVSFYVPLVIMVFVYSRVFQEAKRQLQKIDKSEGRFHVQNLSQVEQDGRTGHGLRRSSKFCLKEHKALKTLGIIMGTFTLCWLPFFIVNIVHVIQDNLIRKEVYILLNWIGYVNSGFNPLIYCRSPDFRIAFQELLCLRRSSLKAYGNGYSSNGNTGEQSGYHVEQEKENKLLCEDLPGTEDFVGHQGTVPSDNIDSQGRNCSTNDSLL
* hit, by the source's call; i = inactive; . = no result given. The list is partial. The share of hits here may be higher or lower than overall.

item	Compound	ALR inh	Ecoli growth	LANA-H2A inh	HNF4A DNA FP	B2AR ag	FGF22 binding	UCH37 inh
1	Oc1ccc(-c2cn3c(n2)SCC3)cc1O	98.7*	0.626	2.5	-1.7	5.5	.	8.7
2	COc1cccc(N2CC(C(=O)Nc3ccc(F)cc3)CC2=O)c1 (stereo unspecified)	-17.7	0.625	-11.0	2.0	5.5	i	0.4
3	O=C(COC(=O)c1ccc(S(=O)(=O)N2CCOCC2)cc1)Nc1ccccc1OC(F)F	-6.3	0.718	-1.8	-0.8	-9.2	i	2.5
4	COc1ccc2nc(Nc3nc(C)c(C(C)=O)s3)sc2c1	34.0	0.708	-1.4	-0.3	-0.3	.	-23.2
5	O=C1CC(c2ccc3c(c2)OCO3)c2cc3c(cc2N1)OCO3 (stereo unspecified)	10.1	0.663	2.1	-2.9	5.1	.	0.5
6	CCOc1ccc(/C=C2\CCc3ccccc3C2=O)cc1	-33.2	.	1.6	1.6	-7.1	i	.
7	COC(=O)c1sccc1S(=O)(=O)Nc1ccc(N2CCCCC2)cc1	.	0.705	-0.8	5.0	1.4	i	0.7
8	COc1cc(OC)cc(-c2c(-c3ccc(F)cc3)c3cc(Br)ccc3n2C)c1	-6.2	0.727	3.2	0.7	-1.2	i	-95.6
9	O=C(CC1Sc2ccccc2NC1=O)NNc1ccc(Cl)c(Cl)c1 (stereo unspecified)	.	0.673	.	-5.1	-11.4	i	5.3
10	Clc1ccc(CSc2nnc(-c3c[nH]c4ccccc34)o2)cc1	-10.8	0.635	-3.1	0.2	1.9	.	3.2
11	CN(CC(=O)Nc1ccccc1Cl)C(=O)Cn1cc(C(F)(F)F)cc(Cl)c1=O	-2.2	0.636	-6.3	-1.3	-3.8	i	3.7
12	COc1ccc(/C=C/C(=O)OCC(=O)Nc2ccc(Cl)cn2)cc1	.	0.682	-2.7	3.0	3.8	i	-0.1
13	O=C(COCc1cc(-c2ccco2)on1)NC1CCCCC1	15.2	0.699	-2.3	1.1	-1.5	i	-1.4
14	CCc1ccccc1NC(=O)CSc1nnc([C@@H](NC(=O)OC(C)(C)C)C(C)C)o1	-4.8	0.712	2.8	2.7	-2.8	.	4.0
15	Cc1nnc(N/N=C/C2CC=CCC2)[nH]c1=O (stereo unspecified)	-7.1	.	3.4	0.3	-0.3	i	.
16	COc1ccc(C2CC(=O)N3C(=C2C#N)SCC3(O)c2ccccc2)cc1 (stereo unspecified)	48.4	0.738	1.4	0.4	-8.8	.	4.2
17	COc1ccc2oc(C(=O)OCC(=O)NCC3CCCO3)c(C)c2c1 (stereo unspecified)	-6.1	0.683	1.6	0.4	1.6	i	-36.4
18	CN(Cc1ccccc1)c1ccc(N2C(=O)CCCC2=O)cc1[N+](=O)[O-]	-6.1	0.719	-2.1	0.6	0.7	.	8.4
19	Cc1nnc(NC(=O)C2CCCN(c3ncccn3)C2)s1 (stereo unspecified)	0.3	0.736	7.0	-0.1	-4.2	.	-1.3
20	COCCN(Cc1cc2cc(C)c(C)cc2nc1Cl)C(=O)N1CCOCC1	.	0.711	-0.7	-4.5	-10.2	i	5.3
21	Cc1nn2c(NCc3ccccn3)cc(C(C)(C)C)nc2c1-c1ccccc1	18.7	0.63	-8.1	-1.5	5.3	i	-123.1
22	Cc1[nH]c2ccccc2c1SCC(=O)NC1CCCCC1	80.1*	0.671	-6.1	1.9	-0.9	i	2.1
23	CNCC(=O)Nc1c(C)n[nH]c1C	-8.6	0.688	1.2	0.4	1.2	i	2.0
24	Cn1c(CNC(=O)CNC(=O)c2ccccc2)cc(=O)n(C)c1=O	-5.1	0.723	4.9	-2.8	-3.9	i	-0.4
25	O=C(CN1CCC(n2nnc3ccccc32)CC1)NCc1cccs1	-5.9	0.681	-5.3	-1.1	-0.3	.	1.2
26	O=C(NC(=S)N1CCN(C/C=C/c2ccccc2)CC1)c1ccco1	1.2	0.634	2.4	-2.0	8.6	i	2.3
27	CCOC(=O)N/N=C/c1c(C)nn(-c2cccc(C(F)(F)F)c2)c1Cl	.	.	-1.6	2.1	0.0	.	.
28	O=C(C1CCCN1S(=O)(=O)c1cccc2nsnc12)N1CCN(c2ccc(F)cc2)CC1 (stereo unspecified)	72.4	0.64	.	-2.4	8.3	i	1.7
29	COc1ccc2c(c1)sc1nc(-c3ccccc3)cn12	-15.1	0.661	-7.5	3.7	12.3	.	.
30	CC(=O)C(Cc1ccccc1)NC(=O)CN1CCN(Cc2ccccc2)CC1 (stereo unspecified)	-3.0	0.677	7.2	2.8	-9.0	i	2.8
31	Cc1ccc2cc3cc(C(=O)N4CC(C)CC(C)C4)oc3nc2c1 (stereo unspecified)	-7.1	0.701	-0.4	-0.7	2.1	.	3.8
32	Clc1ccc(-c2cn3cccnc3n2)cc1	-15.4	0.729	5.6	-2.7	-3.2	.	-482.7
33	O=C(C[n+]1ccccc1)Nc1nc2ccccc2s1	17.1	0.728	-1.7	-1.8	-11.5	.	3.3
34	CC1CCN(C(=O)C2CCN(S(=O)(=O)c3cccc4nonc34)CC2)CC1	-0.3	0.692	2.4	-4.4	-4.2	.	-1.8
35	CS(=O)(=O)N1CCC(Oc2ccccc2C(=O)NC2CCCCCC2)CC1	-1.5	0.623	-4.2	1.6	7.5	i	1.4
36	Cc1ccc(CNc2nc(N)c([N+](=O)[O-])c(NCc3ccccc3)n2)cc1	-2.1	0.717	5.3	0.1	-7.2	.	5.8
37	Cn1cccc1C(=O)Nc1nccs1	-3.3	0.678	2.2	0.4	1.6	.	3.7
38	CCOCCCNC(=O)Cn1ncc2c(=O)oc3ccccc3c21	-27.9	0.705	-0.2	3.5	-0.6	i	-0.7
39	COc1ccc(CCNC(=O)c2cc(-c3ccco3)on2)cc1OC	-5.5	0.705	5.9	-2.2	-5.8	i	3.7
40	Cc1ccc(C)c(NC(=O)CN(C)C(=O)c2ccncc2)c1	-6.5	0.696	6.9	0.1	-7.7	i	1.7
41	CC(=O)Nc1cccc(C(=O)OCC(=O)NC(=O)c2ccccc2)c1	-11.6	0.691	-2.5	0.1	3.0	i	0.7
42	c1ccc(CNc2ncnc3nc[nH]c23)cc1	.	0.669	-26.3	0.8	-9.5	i	1.6
43	O=C(O)CCC(=O)NNC(=O)CCC(=O)NCc1ccccc1	-2.6	0.774	-0.9	-1.0	4.0	.	6.1
44	COc1ccc(O)c(CNn2c(-c3ccc(Br)cc3)nc3ccccc3c2=O)c1	6.8	0.729	0.1	2.1	5.3	i	-0.4
45	Fc1ccccc1Cn1nnc2c(NCc3ccccn3)ncnc21	-5.5	0.742	-0.4	1.6	-2.8	.	4.2
46	C=Cc1cccc(NC(=O)COc2ccccc2)c1	-12.0	0.62	1.7	1.9	-4.1	.	0.1
47	Cc1ccc(S(=O)(=O)Cn2nnnc2C(C)N2CCN(C(=O)c3ccco3)CC2)cc1 (stereo unspecified)	.	0.72	.	1.4	-8.1	i	2.1
48	CC(C)CCNC(=O)c1ccc2c(c1)N(C)C(=O)c1ccccc1S2	-1.4	0.605	-5.0	-2.5	6.9	i	0.9
49	NS(=O)(=O)c1ccc(CNC(=S)NC2CCCC2)cc1	-3.3	0.659	-3.1	4.1	15.2	i	2.7
50	CC(C)(C)NC(=O)c1ccncc1	-7.1	0.724	7.8	-1.5	6.4	.	18.9

The final 3 compounds of the part before come first, to join the parts:
item	Compound	ALR inh	Ecoli growth	LANA-H2A inh	HNF4A DNA FP	B2AR ag	FGF22 binding	UCH37 inh
48	CC(C)CCNC(=O)c1ccc2c(c1)N(C)C(=O)c1ccccc1S2	-1.4	0.605	-5.0	-2.5	6.9	i	0.9
49	NS(=O)(=O)c1ccc(CNC(=S)NC2CCCC2)cc1	-3.3	0.659	-3.1	4.1	15.2	i	2.7
50	CC(C)(C)NC(=O)c1ccncc1	-7.1	0.724	7.8	-1.5	6.4	.	18.9
51	O=C(Nc1ccc(F)cc1)C(Sc1nnc2ccccn12)c1ccccc1 (stereo unspecified)	-2.1	0.648	-4.6	-1.1	-10.3	i	1.3
52	Nc1cc[n+](CC(=O)Nc2ccccc2)cc1	-0.2	0.689	-2.9	2.0	3.4	.	3.5
53	COc1ccc2[nH]c(=O)c(CN(C)C(=O)COc3ccccc3)cc2c1	-0.5	0.744	-7.5	5.5	2.3	.	-73.0
54	Cc1cccc(C(=O)Nc2ccc(NC(=O)Cc3ccc(Cl)cc3)cc2)c1	-1.4	0.682	5.3	3.8	5.9	.	-5.0
55	CC1(C)Cc2nc3sc4c(OCc5ccccc5)ncnc4c3cc2CO1	0.1	0.74	1.6	2.1	6.0	.	0.2
56	Clc1ccc(CN2CCN(/N=C/c3cccnc3)CC2)cc1	14.2	.	-0.2	-2.5	-4.4	i	.
57	CCOc1ccccc1NC(=O)COC(=O)c1nc2nccc(C)n2n1	-2.8	0.725	3.9	6.9	5.1	i	3.8
58	COc1cccc(NC(=O)Nc2nnc(CC(=O)Nc3ccccc3)s2)c1	-1.9	0.639	-5.4	1.5	-0.9	i	0.7
59	CCCc1[nH]nc2c1C(c1ccc(OCCN3CCOCC3)c(OC)c1)C(C#N)=C(N)O2 (stereo unspecified)	10.4	0.695	-1.7	1.6	-8.8	.	3.4
60	Cc1csc(=O)n1CC(=O)Nc1ccc(C(C)C)cc1	.	0.667	.	1.3	15.9	i	4.0
61	O=C(CS(=O)(=O)c1c[nH]c2ccccc12)NC1CCCCC1	11.2	0.723	0.2	3.5	10.7	i	4.7
62	CN(C)CCO/N=C(\c1ccc(Br)cc1)c1cccnc1	10.1	.	-0.5	-1.1	6.2	i	.
63	Cc1ccc(O)c(Nc2nc(-c3ccccc3)nc3ccccc23)c1	-2.3	0.647	1.8	4.3	4.5	i	-7.0
64	O=C(COC(=O)COc1ccccc1)NC1CCCc2ccccc21 (stereo unspecified)	-9.5	0.71	-2.8	-0.8	7.5	i	-1.3
65	CC(Cl)C(=O)Nc1cc(C(C)(C)C)nn1-c1ccccc1 (stereo unspecified)	17.7	0.717	-3.0	2.8	-0.4	i	0.6
66	CCOc1ccc(CNc2ccc3c(c2)ncn3C)cc1	82.2*	0.649	5.8	-0.1	3.5	.	-6.7
67	Cc1ccc(Sc2ccncc2S(N)(=O)=O)cc1	-2.4	0.648	2.2	1.9	-4.0	.	0.2
68	CCOC(=O)c1[nH]c2ccccc2c1NC(=O)c1ccc2c(c1)OCO2	-4.0	0.721	7.2	2.4	9.8	i	-0.4
69	CCC1=C(OC(=O)N(CC)CC)N2C(=O)OC(=NCC3CC3)[C@]2(C)[C@H]2C1=CC[C@H]1C(=O)N(C)C(=O)[C@H]12	.	.	-0.1	-1.5	-12.7	i	3.8
70	Cc1ccc(C(C)(C)C)c(OCCN2CCCC2)c1	-26.2	0.703	5.3	2.2	0.1	.	4.6
71	CCCC[C@@H]1C[C@H]1[C@@H](NC(=O)c1cccs1)c1ccc(C(F)(F)F)cc1	-2.7	.	0.3	.	.	.	1.7
72	O=C(CNc1cccc(Cl)c1)c1ccc(Cl)cc1	.	0.732	3.0	-4.1	-0.3	.	1.9
73	NC(=O)c1ccc(-c2noc(-c3ccccc3F)n2)cc1	-19.5	0.677	2.5	-3.8	-6.4	i	1.1
74	Cc1ccc(S(=O)(=O)NC2(C(F)(F)F)NC(=O)N(C)C2=O)cc1 (stereo unspecified)	-2.0	0.695	-4.0	1.1	1.2	i	3.3
75	CCCOc1cccc(C(=O)N(Cc2cccs2)C2CCS(=O)(=O)C2)c1 (stereo unspecified)	-4.6	0.692	3.3	-2.4	-2.5	.	-2.1
76	CCOC(=O)C1(Cc2cccc(OC)c2)CCCN(S(=O)(=O)c2cccnc2)C1 (stereo unspecified)	-6.7	0.655	0.2	-4.8	6.7	i	3.9
